High-throughput results as filed in PubChem.
Insulin prom inh: TRM-6 insulin promoter activity inhibition; TRM-6 cells (human fetal islet line), insulin promoter-eGFP reporter, imaging; reporter expression induced with tamoxifen; inhibition, % at 2 µM; 130,000 compounds, 0.9% hits; AID 1273;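 active means inhibition above the mean plus 3 SD, with well images judged a real hit on visual review, cut at about 60% in these data, passing the limit was not always enough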
RGS16-Gao HTS: modulates binding between human RGS16 and Galphao | 220,000 compounds, 0.38% hits | bead-based flow cytometry RGS16-Galphao binding, fluorescence; actives lie on both sides | AID 1441 | O15492+P09471 | binding response (% of control), % at 10 µM;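 active means below 25% or above 175%, edge rows of some plates excepted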;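 further: Galphao activated by GDP with aluminum fluoride before binding; 100% = wells without compound and 0% = beads without RGS; some results beyond the cut were filed as inactive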
GALR2 ag: GALR2 (human) receptor agonism; O43603; GALR2-expressing cells, agonist activation read-out; activation, %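 (tested at 5 µM)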; 140,000 compounds, 0.48% hits; AID 803;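 active means above mean plus 3 SD of all compounds, about 5% in these data, not always enough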;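 further: 0% = vehicle buffer wells and 100% = reference agonist at full effect; tested in CHO reporter cells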
PKD1 kinase inh: PKD1 (human) kinase inhibition. Q15139. PKD1 kinase fluorescence polarization assay. inhibition, %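 (about 10 µM by stock and volumes)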. 200,000 compounds, 0.056% hits;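 active means inhibition of 50% or more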;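 further: controls were vehicle for no effect and a reference inhibitor for full effect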
Target sequence (Q15139 whole entry, looked up): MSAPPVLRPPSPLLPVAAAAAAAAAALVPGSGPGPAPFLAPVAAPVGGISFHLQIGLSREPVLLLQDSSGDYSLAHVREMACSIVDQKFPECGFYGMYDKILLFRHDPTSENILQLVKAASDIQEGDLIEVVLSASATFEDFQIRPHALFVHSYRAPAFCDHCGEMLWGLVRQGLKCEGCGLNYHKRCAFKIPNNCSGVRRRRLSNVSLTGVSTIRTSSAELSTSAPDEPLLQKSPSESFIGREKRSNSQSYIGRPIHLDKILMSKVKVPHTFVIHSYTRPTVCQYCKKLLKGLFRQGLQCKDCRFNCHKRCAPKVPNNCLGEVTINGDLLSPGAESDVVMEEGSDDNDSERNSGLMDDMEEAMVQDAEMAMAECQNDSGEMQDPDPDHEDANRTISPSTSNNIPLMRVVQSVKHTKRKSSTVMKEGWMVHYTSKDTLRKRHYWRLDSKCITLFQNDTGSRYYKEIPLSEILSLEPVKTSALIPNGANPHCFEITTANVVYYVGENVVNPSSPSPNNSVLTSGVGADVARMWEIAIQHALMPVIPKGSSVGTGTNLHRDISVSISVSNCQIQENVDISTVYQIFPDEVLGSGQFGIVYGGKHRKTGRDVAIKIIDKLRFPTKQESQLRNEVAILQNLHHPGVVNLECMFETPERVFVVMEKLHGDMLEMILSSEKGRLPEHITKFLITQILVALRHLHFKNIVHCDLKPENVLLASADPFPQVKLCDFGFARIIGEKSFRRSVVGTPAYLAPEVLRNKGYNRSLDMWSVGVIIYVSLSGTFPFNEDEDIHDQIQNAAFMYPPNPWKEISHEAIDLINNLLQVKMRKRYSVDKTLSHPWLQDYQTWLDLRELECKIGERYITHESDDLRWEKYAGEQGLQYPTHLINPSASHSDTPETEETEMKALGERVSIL
HSV replic up: HSV replication enhancement; 220,000 compounds, 0.005% hits; HSV replication augmentation in cells, fold increase; maximum fold increase; AID 1956;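 active means peak rise of 1.5-fold or more in the series; tested in PC3 cells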;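 further: first round at 10 µM; read as green reporter fluorescence; hits show the peak of a series up to 25 µM; 1 = signal of infected wells without compound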
Insulin prom inh cell count: second read-out of Insulin prom inh, no call of its own (marks repeat the call); normalized cell count, %; measured here: cell count, toxicity; reference of the scale not given here;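 cells exposed to compound for 48 h; stained nuclei by imaging scaled within each plate; lower means fewer cells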
HSV replic up primary fold: further read-out of HSV replic up, marked with its call; fold increase; compound at 10 µM; measured here: primary screen fold increase 10 uM; tested in PC3 cells;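 GFP signal in the first replicate; 1 = infected wells without compound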
Active calls of the source: *; i = inactive; nt = no result given.

Letters: A = Insulin prom inh; B = Insulin prom inh cell count; C = RGS16-Gao HTS; D = GALR2 ag; E = PKD1 kinase inh; F = HSV replic up; G = HSV replic up primary fold
CCS(=O)(=O)c1ccc2oc(SCC(=O)N3CCCCC3)nc2c1
  A = nt	B = nt	C = 96	D = nt	E = -5	F = i	G = 0.97

COc1ccc(NC(=O)c2cccs2)cc1OC
  A = 45	B = 56	C = 97	D = 5.0	E = -4	F = i	G = 1

Cc1ccc(NC(=O)CCC(=O)n2nc(C)cc2C)c(C)c1
  A = 14	B = 94	C = 103	D = -0.7	E = -8	F = i	G = 0.81

O=C(NC1CCS(=O)(=O)C1)Oc1ccccc1 (stereo unspecified)
  A = 0	B = 111	C = 68	D = -0.2	E = 3	F = i	G = 0.88

COC(=O)c1ccc(C(=O)Nc2ccc(N)cc2N)cc1
  A = -121	B = 93	C = 103	D = 0.0	E = 0	F = i	G = 1.1

COC(=O)c1ccc2c(c1)S(=O)(=O)NC(=NCCCN1CCOCC1)S2
  A = nt	B = nt	C = 102	D = 0.4	E = -15	F = nt	G = nt

N#CC1=C(N)N(c2ccccc2)C2=C(C(=O)CCC2)C1c1cccs1 (stereo unspecified)
  A = -96	B = 78	C = 102	D = -2.0	E = -8	F = i	G = 0.82

Cc1ncc(CO)c2cc(S(=O)(=O)c3ccc(F)cc3)c(=O)oc12
  A = nt	B = nt	C = 101	D = -0.2	E = -1	F = i	G = 1.1

COc1ccccc1/C=C/C=N/n1c(C2CCCCC2)n[nH]c1=S
  A = -11	B = 94	C = 100	D = 1.4	E = -10	F = i	G = 0.88

Cc1ccc(CNC(=O)CCNS(=O)(=O)c2ccc(Br)s2)cc1
  A = nt	B = nt	C = 103	D = nt	E = -2	F = i	G = 0.96

COc1cc2c(cc1OC)C(c1cccs1)N(C(=S)NC(C)C)CC2 (stereo unspecified)
  A = nt	B = nt	C = 100	D = nt	E = -2	F = i	G = 1

COC(=O)c1ccccc1NS(=O)(=O)c1ccc2[nH]c(=O)[nH]c2c1
  A = 30	B = 120	C = 114	D = -2.0	E = -1	F = i	G = 0.85

O=C(NCC(c1cccs1)N1CCOCC1)c1ccc([N+](=O)[O-])cc1 (stereo unspecified)
  A = nt	B = nt	C = 102	D = -0.6	E = -6	F = i	G = 0.77

O=C(CSc1nc2ccccc2c(=O)n1CCCN1CCOCC1)c1c[nH]c2ccccc12
  A = nt	B = nt	C = 201	D = nt	E = 3	F = i	G = 0.89

CC(C)Cc1cc(C(=O)Nc2ccc3c(c2)OCO3)no1
  A = -30	B = 34	C = 100	D = -2.8	E = -2	F = i	G = 0.84

Cc1ncc([N+](=O)[O-])n1CCOC(=O)c1ccc(Cl)cc1Cl
  A = nt	B = nt	C = 98	D = -3.4	E = -3	F = i	G = 0.93

COc1ccc(-c2cccc(C3CC=CC4C3C(=O)N(Cc3ccccc3)C4c3ccc(OC)c(Cl)c3)c2)cc1 (stereo unspecified)
  A = nt	B = nt	C = 101	D = nt	E = nt	F = i	G = 0.73

O=[N+]([O-])c1cnccc1Nc1cccc(F)c1
  A = -123	B = 172	C = 101	D = -0.8	E = -2	F = i	G = 0.87

N#C/C(=C/c1cn[nH]c1-c1cccc(Br)c1)C(=O)O
  A = nt	B = nt	C = 102	D = nt	E = nt	F = i	G = 1

COc1ccccc1N1CCN(S(=O)(=O)c2ccccc2)CC1
  A = -9	B = 64	C = 105	D = -3.6	E = -3	F = i	G = 0.98

O=C(CCNC(=O)Cn1ccc2ccccc2c1=O)NCCc1ccccc1Cl
  A = -32	B = 114	C = 98	D = -4.2	E = 1	F = i	G = 0.91

CN(C)S(=O)(=O)c1ccc(C(=O)OCCn2cnc3c2c(=O)n(C)c(=O)n3C)cc1
  A = -7	B = 81	C = 98	D = nt	E = -1	F = i	G = 0.97

Cc1ccc2cc(CN(CCN(C)C)C(=S)Nc3ccccc3)c(=O)[nH]c2c1C
  A = nt	B = nt	C = 103	D = nt	E = -3	F = i	G = 0.83

CC(C)(C)SCCNS(=O)(=O)c1ccc(Cl)cc1
  A = 10	B = 96	C = 99	D = nt	E = 1	F = i	G = 0.91

CCN(CC)c1ccc(/C=N/N2CCN(Cc3ccccc3)CC2)c(O)c1
  A = -42	B = 84	C = 103	D = 1.5	E = 3	F = i	G = 0.95

CCOC(=O)N1CCC(N2CC34C=CC(O3)C(C(=O)Nc3ccc(F)cc3)C4C2=O)CC1 (stereo unspecified)
  A = nt	B = nt	C = 90	D = -0.3	E = -12	F = i	G = 1.1

CC12CCC(C(=O)NCCCN3CCOCC3)(OC1=O)C2(C)C (stereo unspecified)
  A = nt	B = nt	C = 103	D = -3.1	E = -4	F = i	G = 0.98

COc1cc2c(cc1OC)C(C)N(C(=O)CCN1C(=O)C3C4C=CC(C4)C3C1=O)CC2 (stereo unspecified)
  A = nt	B = nt	C = 99	D = -2.9	E = 5	F = i	G = 0.85

COc1ccc(-c2nc3cc([N+](=O)[O-])ccc3o2)cc1
  A = nt	B = nt	C = 106	D = nt	E = -3	F = i	G = 1.1

CCN(CC)c1c([N+](=O)[O-])ncn1C
  A = -33	B = 76	C = 84	D = -2.9	E = -3	F = i	G = 0.81

O=C(Nc1nnc(C2CC2)s1)C1CCCO1 (stereo unspecified)
  A = nt	B = nt	C = 110	D = nt	E = 1	F = i	G = 0.93

COc1ccccc1C1NC(=O)CS1 (stereo unspecified)
  A = nt	B = nt	C = 108	D = -0.9	E = -1	F = i	G = 1.1

O=C(Cn1nnc(-c2cccs2)n1)N1CCOCC1
  A = nt	B = nt	C = 100	D = nt	E = 1	F = i	G = 0.93

COc1ccc(N2CC(C(=O)N/N=C/c3ccc([N+](=O)[O-])cc3)CC2=O)cc1 (stereo unspecified)
  A = nt	B = nt	C = 92	D = nt	E = -8	F = i	G = 0.93

N#C/C(=C/c1ccc(OCc2ccccc2)cc1)C(=O)NC1CCCCC1
  A = 25	B = 104	C = 104	D = -0.2	E = -14	F = i	G = 0.87

COc1ccc(CC(=O)N(c2ccccc2)c2nc(C)cs2)cc1
  A = nt	B = nt	C = 103	D = -0.4	E = -9	F = i	G = 1.1

COCCNc1nc(-n2nc(C)cc2C)nc2sc3c(c12)CCCC3
  A = nt	B = nt	C = 101	D = 1.9	E = 0	F = nt	G = nt

Clc1cc(Br)ccc1OCCCNCc1ccccc1
  A = 0	B = 68	C = 128	D = 0.8	E = -5	F = i	G = 0.78

COc1cc(C(=O)Nc2ccc(N3CCOCC3)cc2)ccc1OCc1c(C)noc1C
  A = nt	B = nt	C = 98	D = -0.4	E = 1	F = i	G = 1.1

Clc1cc(Br)ccc1OCCOCCOc1cccc2cccnc12
  A = 42	B = 109	C = 95	D = -2.3	E = -5	F = i	G = 0.94

O=C(OC1Cn2c(=O)ccc(=O)n2C1)c1ccc([N+](=O)[O-])cc1
  A = nt	B = nt	C = 95	D = -1.9	E = -1	F = i	G = 1.1

CN(C)CCOc1ccccc1-c1ccccc1
  A = -4	B = 132	C = 96	D = -2.0	E = 5	F = i	G = 1.1

O=C(COc1ccc(Br)cc1Br)NC(=O)NC1CCCC1
  A = nt	B = nt	C = 96	D = nt	E = 7	F = i	G = 0.96

Nc1nncn1C(=O)CCCOc1ccc(Cl)cc1Cl
  A = -12	B = 58	C = 102	D = -0.3	E = -18	F = i	G = 1

Cc1ccc(NCC(=O)N/N=C/c2cccc(Oc3ccccc3)c2)cc1
  A = 7	B = 135	C = 100	D = -0.6	E = -4	F = i	G = 0.9

Cc1ccccc1CNc1nnnn1C
  A = nt	B = nt	C = 103	D = nt	E = 1	F = i	G = 0.87

CCN(CC)S(=O)(=O)c1ccc(NS(=O)(=O)c2ccc(F)cc2)cc1
  A = 7	B = 198	C = 104	D = 0.0	E = 2	F = i	G = 0.95

O=c1cc(-c2ccccc2Cl)oc2cc(O)cc(O)c12
  A = 38	B = 120	C = 100	D = -2.5	E = -6	F = i	G = 1

O=C(CSc1nnc(Cn2nnc3ccccc32)o1)N(Cc1ccc(F)cc1)c1ccccc1
  A = nt	B = nt	C = 100	D = 0.3	E = -8	F = i	G = 0.91

Cc1nn(-c2ccc(Cl)c(Cl)c2)c(=O)c2ccccc12
  A = 40	B = 112	C = 94	D = -2.5	E = -3	F = i	G = 0.95

C[C@@H]1CC[C@]2(O[C@@H](CCO)C[C@H](O)[C@H]2O)O1
  A = 18	B = 77	C = 102	D = -1.3	E = 0	F = i	G = 0.76

CCOc1ccccc1NC(=O)Nc1cc(S(=O)(=O)N(C)C)ccc1C
  A = nt	B = nt	C = 100	D = nt	E = nt	F = i	G = 0.89

c1ccc(-c2nnc(-c3ccccc3)nn2)cc1
  A = nt	B = nt	C = 101	D = nt	E = nt	F = i	G = 1

COc1cccc(-n2nnc3c(=O)n(Cc4ccccc4F)cnc32)c1
  A = -29	B = 90	C = 94	D = 0.8	E = -2	F = i	G = 0.91

Cc1cc(N)n(-c2ccc(S(=O)(=O)N3CCCC3)cc2[N+](=O)[O-])n1
  A = nt	B = nt	C = 101	D = nt	E = nt	F = i	G = 0.96

O=C(CCN1C(=O)C2C3C=CC(C3)C2C1=O)Nc1ccccc1F (stereo unspecified)
  A = 15	B = 175	C = 104	D = -0.9	E = -15	F = i	G = 1.1

O=C(Cn1c(=O)[nH]c2ccccc2c1=O)N1CCN(c2cccc(Cl)c2)CC1
  A = nt	B = nt	C = 105	D = nt	E = -6	F = i	G = 1

Cc1cc(Nc2nc(Cl)c(Cl)cc2Cl)n(-c2ccccc2)n1
  A = 39	B = 56	C = 92	D = -1.3	E = -5	F = i	G = 0.83

O=C(Cn1nnc(-c2ccccc2-n2cnnn2)n1)N1CCCCC1
  A = 9	B = 87	C = 102	D = -0.8	E = 3	F = i	G = 0.96

Cc1csc(NC(=O)NC2(C(F)(F)F)Oc3ccccc3O2)n1
  A = -57	B = 88	C = 92	D = -2.3	E = 10	F = i	G = 0.76

Among those listed so far, 5 contain bromine.
Letters: A = Insulin prom inh; B = Insulin prom inh cell count; C = RGS16-Gao HTS; D = GALR2 ag; E = PKD1 kinase inh; F = HSV replic up; G = HSV replic up primary fold
Cc1ccc(CNC(=O)CCNS(=O)(=O)c2ccc(Br)s2)cc1
  A = nt	B = nt	C = 103	D = nt	E = -2	F = i	G = 0.96

N#C/C(=C/c1cn[nH]c1-c1cccc(Br)c1)C(=O)O
  A = nt	B = nt	C = 102	D = nt	E = nt	F = i	G = 1

Clc1cc(Br)ccc1OCCCNCc1ccccc1
  A = 0	B = 68	C = 128	D = 0.8	E = -5	F = i	G = 0.78

Clc1cc(Br)ccc1OCCOCCOc1cccc2cccnc12
  A = 42	B = 109	C = 95	D = -2.3	E = -5	F = i	G = 0.94

O=C(COc1ccc(Br)cc1Br)NC(=O)NC1CCCC1
  A = nt	B = nt	C = 96	D = nt	E = 7	F = i	G = 0.96

Other entries follow:
Letters: A = Insulin prom inh; B = Insulin prom inh cell count; C = RGS16-Gao HTS; D = GALR2 ag; E = PKD1 kinase inh; F = HSV replic up; G = HSV replic up primary fold
O=C(CN1CCc2ccccc2C1)N1CCN(S(=O)(=O)c2ccccc2)CC1
  A = nt	B = nt	C = 162	D = -1.1	E = -2	F = i	G = 0.98

O=C(c1cc([N+](=O)[O-])ccc1N1CCOCC1)N1CCOCC1
  A = -27	B = 109	C = 70	D = 0.6	E = 3	F = i	G = 1

Cc1cc2cc(CN(CCN(C)C)C(=S)NCc3ccco3)c(=O)[nH]c2cc1C
  A = nt	B = nt	C = 179	D = nt	E = 5	F = i	G = 1.1

NC(=O)[C@H]1CC2(CC(c3cccc(NC(=O)[C@H]4CCC(=O)N4)c3)=NO2)CN1C(=O)c1ccccc1 (stereo partly specified)
  A = nt	B = nt	C = 108	D = nt	E = nt	F = i	G = 0.99

COc1ccc(N2C(=O)C(Cc3ccccc3)NC2=S)cc1 (stereo unspecified)
  A = nt	B = nt	C = 93	D = nt	E = -8	F = i	G = 0.98

Cc1cc(NS(=O)(=O)c2ccc(NC(=O)COc3ccccc3C(C)C)cc2)no1
  A = nt	B = nt	C = 103	D = 0.0	E = -8	F = i	G = 1.1

CS(=O)c1ccccc1O (stereo unspecified)
  A = nt	B = nt	C = 99	D = nt	E = 0	F = i	G = 0.99

CCOC(=O)C(=CNc1nc2ccc(C(=O)OCC)cc2s1)C(=O)OCC
  A = nt	B = nt	C = 100	D = nt	E = nt	F = i	G = 0.95

COc1cc(OC)cc(OCC(O)Cn2ccnc2)c1 (stereo unspecified)
  A = -21	B = 92	C = 102	D = -1.0	E = 4	F = i	G = 0.8

CCOC(=O)c1c(CSCc2ccccc2)oc2ccc(O)c(CN(C)C)c12
  A = nt	B = nt	C = 101	D = nt	E = nt	F = i	G = 0.73

O=C(c1cn(-c2ccc(Cl)c(Cl)c2)nn1)C1CC1
  A = -33	B = 68	C = 129	D = nt	E = 1	F = i	G = 0.92

Cc1ccsc1C(=O)OCC(=O)N1CC(=O)Nc2ccccc21
  A = 13	B = 122	C = 95	D = -2.1	E = -6	F = i	G = 0.94
